# High-throughput results deposited in PubChem BioAssay by National Center for Advancing Translational Sciences (NCATS).
# TRPV1 potentiator: potentiators of human vanilloid receptor 1 (TRPV1). TRPV1-expressing cells, Fluo-8 calcium influx, capsaicin EC20 potentiation; host cell line not named in the record; control for the full effect not named in the record. potentiation, % at 8.33 µM. hit rate 0.02% among 320,000. AID 540277; active means potentiation above 80%; inconclusive means 30% to 80%; inactive means below 30%; note: 0% is about no effect
#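 Cells expressing TRPV1 were dye-loaded with Fluo-8 and read kinetically: 10 s baseline, 3 min after compound (agonist portion), then 2 min after EC20 capsaicin (allosteric enhancer portion). Calcium-bound dye fluorescence at 480/520 nm.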
# Sfp inh: inhibitors of Bacillus subtilis Sfp phosphopantetheinyl transferase; Biochemical Sfp PPTase activity, qHTS; AID 1490; Potency, µM, for inactives: max response, negative = inhibition, usual class: inhibitors; hit rate 3.5% among 310,000; Q9F4F7; active = well fitted inhibition curve with a large enough effect; inconclusive = small, poorly fitted or top-dose-only effect, or another doubt; inactive = no such curve, though single readings can be large or run the other way;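 note: the enzyme is Sfp with the accession as filed and its product quenches rhodamine fluorescence; potency is the fitted concentration of half-maximal effect; 0% = enzyme reaction without inhibitor and -100% = no enzyme wells; top concentration of the series not given in the record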
#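 Sfp 15 nM + cpd, 15 min RT; start w/ rhodamine-CoA 5 uM, BHQ-2-YbbR 12.5 uM (final); 50 mM Hepes pH 7.6, 10 mM MgCl2, 0.01% NP-40, 0.01% BSA; read 525/598 nm at 0 and 30 min.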
# Menin MLL FP FL: displaces fluorescein MLL peptide from human menin. 290,000 tested, under 10 active. Fluorescence polarization, fluorescein-MLL peptide displacement from menin. AID 1766. FP activity change, % at 61.4 µM; inconclusive = falling polarisation curve, or a change in total fluorescence; inactive = total fluorescence flat and polarisation flat or rising; no compound was filed as active; the % refers to the polarisation; negative = inhibition;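 note: % of control where 0% means no effect; inhibitors lower the polarisation; unlabelled MLL peptide was the positive control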
# TRPML1 blocker: human mucolipin-1 channel inhibition. Q9GZU1. hit rate 0.02% among 390,000. activity change, negative = inhibition, % (no concentration beside the values). TRPML1-inducible cells, Ca2+ dye fluorescence, FDSS; stronger effect = lower value; inhibition of EC80 agonist-evoked calcium signal. AID 624415; in the data active means activity change below about -50%; inconclusive means about -30% to -50%; inactive means above about -30%;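 note: stimulus is agonist 54-4 at its EC80 concentration; % is set by controls: 0 for no effect and ±100 for the full control effect; compound concentration not given in the record; the text of the record puts the active cut at -80%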
# Target sequence (Q9GZU1 whole entry, looked up): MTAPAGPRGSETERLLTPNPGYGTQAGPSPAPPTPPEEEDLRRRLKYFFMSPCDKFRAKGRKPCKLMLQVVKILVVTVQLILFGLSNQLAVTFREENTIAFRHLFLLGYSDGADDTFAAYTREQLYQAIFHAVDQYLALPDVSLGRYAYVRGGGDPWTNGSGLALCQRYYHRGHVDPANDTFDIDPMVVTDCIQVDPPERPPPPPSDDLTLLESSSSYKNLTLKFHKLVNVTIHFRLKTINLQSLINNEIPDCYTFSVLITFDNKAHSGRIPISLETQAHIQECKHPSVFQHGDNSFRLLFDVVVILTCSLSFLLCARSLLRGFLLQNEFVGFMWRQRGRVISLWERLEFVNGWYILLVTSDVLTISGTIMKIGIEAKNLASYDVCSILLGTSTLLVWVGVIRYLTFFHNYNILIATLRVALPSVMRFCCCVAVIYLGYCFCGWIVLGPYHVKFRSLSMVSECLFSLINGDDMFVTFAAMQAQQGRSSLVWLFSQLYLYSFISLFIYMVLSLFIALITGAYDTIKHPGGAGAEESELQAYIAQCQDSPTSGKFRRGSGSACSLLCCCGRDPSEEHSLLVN
#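 Calcium fluorescence in TRPML1-DL cells induced overnight with Tet: a 110 s read after compound pin addition, then a 110 s antagonist read after challenge with 54-4 at 4 uM final (EC80).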
# gsp antag: antagonizes gsp, the McCune-Albright syndrome mutation; Potency, µM (titrated, usually from 76.9 µM), without a hit: at the top dose activity change, negative = inhibition, actives largely listed as inhibitors; gsp-mutant cells, cAMP HTRF, 30 min; control for the full effect not named in the record; hit rate 0.4% among 340,000; AID 624288; active = falling curve of any shape with a large fitted effect; inconclusive = falling curve, mostly with a smaller effect; inactive = flat or rising curve; cell line not stated here;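 note: intracellular cAMP measured with PDE inhibitor Ro 20-1724 present during compound exposure; potency is the fitted concentration of half-maximal effect; % is set by controls: 0 for no effect and ±100 for the full control effect; nearly all actives have a fitted effect of over 65% in size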
#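 Cells in G418 medium, seeded 16-24 h, 37C; buffer exchange to DPBS + 1 mM CaCl2, 0.5 mM MgCl2, 0.05% BSA; cpds in DMSO + […] (300 uM stock), 30 min 37C; HTRF cAMP detection.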
# ClpP mod: qHTS Assay for Activators of ClpP | ATP-dependent Clp protease proteolytic subunit (Bacillus subtilis (strain 168)), P80244 | purified B. subtilis ClpP, FRET peptide cleavage, 20 min | Potency, µM (series often up to 57.5 µM), without a hit: at the highest dose activity change, negative = active | hit rate 1.9% among 340,000 | AID 651965, 2013; active = well fitted falling curve with a large enough effect; inconclusive = small, poorly fitted or top-dose-only effect; inactive = no such curve, though single readings can be large or run the other way; note: potency is the fitted concentration of half-maximal effect; the source files actives as falling curves though it sought activators and does not explain the sign; nearly all actives have a fitted effect of over 65% in size; many hits overshoot -100%
# Target sequence (P80244 whole entry, looked up): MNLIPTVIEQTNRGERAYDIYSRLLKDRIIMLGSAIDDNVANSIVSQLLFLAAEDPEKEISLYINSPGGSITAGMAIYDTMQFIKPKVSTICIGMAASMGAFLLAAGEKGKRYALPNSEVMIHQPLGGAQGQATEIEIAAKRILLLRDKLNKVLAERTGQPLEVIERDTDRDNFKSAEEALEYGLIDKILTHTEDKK
#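 ClpP 10 microg/mL final, pH 8 Tris/KCl buffer with BSA, glycerol, Tween-20; compound pinned in; FRET-FV substrate; RT 20 min; Ex320/Em430; ΔFRET vs ADEP 5.8 microM, DMSO, no enzyme.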
# gsp ag: activates gsp, the McCune-Albright syndrome mutation; gsp mutant cells, cAMP HTRF, 30 min; control for the full effect not named in the record; Potency, µM (series often up to 76.9 µM), without a hit: at the top dose activation (cAMP increase), actives largely listed as activators; AID 624287; hit rate 0.13% among 340,000; active = well fitted activation curve with a large enough effect; inconclusive = small, poorly fitted or top-dose-only effect, or another doubt; inactive = no such curve, though single readings can be large or run the other way; cell line not stated here;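 note: phosphodiesterase inhibitor Ro 20-1724 added with compounds to block cAMP breakdown; potency is the fitted concentration of half-maximal effect; nearly all actives have a fitted effect of over 60% in size; about a fifth of the inactives were tested at one dose only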
#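 Cells in DMEM/10% FBS with G418 were pretreated with compounds in DMSO plus […] (300 uM stock) for 30 min at 37C. cAMP was measured by HTRF (cAMP-d2 plus anti-cAMP antibody-K) after 30 min at room temperature.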
# Numbers without * were called inactive; ? = inconclusive; / = no result given; & = joins results of further samples; [ ] = remark or other dose. No enrichment for hits; about 4.9% have a hit in one of these screens.
compound	TRPV1 potentiator	gsp ag	Sfp inh	ClpP mod	TRPML1 blocker	Menin MLL FP FL	gsp antag
CN1CCc2c(sc(N)c2C(=O)c2ccc(Cl)cc2)C1	5	?	-9%	-26%	-13	?	3%
CCOc1ncccc1C(=O)N(CC)CC(=O)Nc1ccc(NC(C)=O)cc1	-5	15%	24%	-2.1%	11	1.7	9%
CCN(C(=O)Cn1cnc2c1c(=O)n(C)c(=O)n2C)C1CCCCC1	5	10%	/	-0.3%	-3	/	1%
C/C(=N/O)c1c(O)c(C)c(-c2ccccc2)n(-c2ccccc2)c1=O	-6	-28%	1%	-2.0%	10	-2.5	-6%
O=[N+]([O-])/C=C1\CCCCCN1	-2	?	5%	-3.1%	-16	2.2	10%
CC1=NN(c2ccc(C(=O)OC(C)C)cc2)C(=O)/C1=C\C=C\c1ccco1	-7	0%	?	-0.2%	3	5.5	-20%
O=C1/C(=C/c2cccc(Cl)c2)SC(=S)N1CCC(=O)N1CCCCC1CCO (stereo not given)	-7	26%	-11%	0.7%	20	/	-2%
CC(=N)c1c(O)c2ccccc2oc1=O	22	?	5%	-0.2%	/	1.7	?
COc1cc(/C=C/C(=O)O)ccc1O	/	/	6%	?	/	-0.3	2%
CCN(CC)C(=S)Nc1ccc(C(=O)OC)cc1	15	-2%[15.4 µM]	7%	/	-9	-3.1	16%
COc1ccc(CNC(=O)CCCC2=NS(=O)(=O)c3ccccc3N2)cc1	10	19%	0%	-6.2%	-1	/	6%
COc1ccccc1C1CC(c2ccc(Cl)cc2)Nc2ncnn21 (stereo not given)	1	9%	-2%	2.2%	-6	0.1	2%
COC(=O)c1cc(S(=O)(=O)N2CCC(c3cc(OC)ccc3OC)C2)c[nH]1 (stereo not given)	27	-11%	12%	-0.2%	13	-4.5	-20%
CC(C)Nc1nc(NC(C)C)nc(SCC(N)=O)n1	18	4%[15.4 µM]	16%	/	-8	0.6	14%
Cc1cccc(N(CC(O)CN2CCOCC2)S(=O)(=O)c2ccccc2)c1 (stereo not given)	-4	-16%	22%	-1.6%	-4	-1.3	9%
CCC(C(=O)Nc1c[nH]c(=O)[nH]c1=O)c1ccccc1 (stereo not given)	8	13%	24%	0.5%	-18	-0.4	1%
O=C1c2ccccc2C(=O)N1CCCc1nc(-c2ccccn2)no1	-1	18%	-16%	0.0%	8	-1.0	-6%
CCCS(=O)(=O)N1CCCC(C(=O)NCCc2ccc(Cl)cc2)C1 (stereo not given)	-36	-13%	6%	0.1%	-4	6.1	0%
Cc1nnc(SCC(=O)Nc2ccc(N(C)C)cc2)[nH]c1=O	-9	/	/	0.2%	20	/	/
CC(NC(=O)c1ccccc1NC(=O)c1ccco1)c1ccccc1 (stereo not given)	0	45%	23%	-19%	24	0.4	4%
c1ccc2oc(-c3[nH]ncc3CN(Cc3ccncc3)CC3CCCO3)cc2c1 (stereo not given)	0	-51%[inhibitor]	1%	-11%	1	-0.3	-12%
CCCCNc1c(-c2cccc(-c3ccc(OC)cc3)c2)nc2cc(C)ccn12	/	?	/	4.5%	70	/	32µM*
CCC(C)C(=O)Nc1nnc(SCC(=O)NC(C)(C)C)s1 (stereo not given)	14	2%	23%	-0.5%	-8	-0.1	5%
Cc1ccc(-n2nc(C)c3c(C)onc3c2=O)cc1	/	7%	14%	-2.2%	-12	3.6	2%

# Whole records, looked up by structure:
# Profile of Cc1cccc(N(CC(O)CN2CCOCC2)S(=O)(=O)c2ccccc2)c1 (stereo not given) : TRPV1 potentiator: -4; gsp ag: -16%; Sfp inh: 22%; ClpP mod: -1.6%; TRPML1 blocker: -4; Menin MLL FP FL: -1.3; gsp antag: 9%
# Profile of CC(C)Nc1nc(NC(C)C)nc(SCC(N)=O)n1 : TRPV1 potentiator: 18; gsp ag: 4%[15.4 µM]; Sfp inh: 16%; ClpP mod: /; TRPML1 blocker: -8; Menin MLL FP FL: 0.6; gsp antag: 14%

# Next part:
compound	TRPV1 potentiator	gsp ag	Sfp inh	ClpP mod	TRPML1 blocker	Menin MLL FP FL	gsp antag
O=C(NCc1ccccn1)c1ccc(COc2ccc(Cl)cc2)o1	9	-36%[inhibitor]	-11%	-2.2%	-10	-3.5	7%
OC1(c2cccnc2)CCN(Cc2nnnn2C2CCCCC2)CC1	13	-22%	-4%	0.7%	0	5.1	13%
CC(=O)c1cnc(SCc2ccc(Cl)cc2)nc1C	4	-1%[15.4 µM]	-12%	/	16	0.2	/
COc1ccc2cc(C(=O)O)ccc2c1	-5	-5%	5%	?	-7	-1.0	4%
C/C(=N\NC(=O)c1ccccc1O)C1C(=O)c2ccccc2C1=O	14	19%	15%	0.3%	-9	3.2	-2%
CCn1c(SCC(=O)Nc2nccs2)nnc1-c1ccc(C)cc1	-10	-32%[inhibitor]	4%	-0.1%	23	-0.4	2%
O=C(NCC1COc2ccccc2O1)c1cccs1 (stereo not given)	-12	0%	8%	/	-9	0.7	9%
CC1CCCN(C(=O)c2cccc(S(=O)(=O)N3CCCc4ccccc43)c2)C1 (stereo not given)	11	1%	/	0.3%	4	/	-10%
CC1CCCN(C(=O)COc2ccc(NC(=O)c3cccs3)cc2)C1 (stereo not given)	-10	-1%[15.4 µM]	20%	/	3	0.7	1%
Cc1cc(N2CCC(C)CC2)nc(NCc2ccccc2)n1	1	?	?	-2.9%	14	-2.9	-3%
Cc1[nH]c2nc3ccccc3n2c(=O)c1CCC(C)C	-15	-4%[15.4 µM]	14%	1.0%	42	2.2	7%
COC(=O)c1cc(=O)n(Cc2ccc(OC)cc2)c(=NCc2ccc(OC)cc2)s1	?	6%	9%	/	3	0.3	7%
CC(=NNC(=S)N1CCCCC1)c1ccccn1	/	-6%	/	?	-22	/	/
CC(Oc1ccc(C#N)cc1)C(=O)NC1CCCC1 (stereo not given)	27	21%	/	1.3%	4	/	4%
N#Cc1ccccc1S(=O)(=O)N1CCN(Cc2cc3c(cc2Br)OCCO3)CC1	/	-18%	/	-2.7%	0	/	/
CC(C)C(C)NC(=O)CN1C(=O)NC(C)(c2ccc3ccccc3c2)C1=O (stereo not given)	7	?	11%	/	11	0.6	-3%
CC(C)OC(=O)CSc1nnc(-c2ccccn2)n1C	9	16%	-10%	-4.4%	1	-0.5	3%
CN(C)C(=O)c1ccc(-n2cccn2)nc1	3	16%[15.4 µM]	?	/	-24	0.7	6%
CCC(C)CN1CCC(CO)(Cc2ccccc2Cl)CC1 (stereo not given)	6	-7%	15%	/	-2	-3.0	-3%
COc1ccc(CCN(C)C(=O)CSc2nnc(-c3ccco3)o2)cc1OC	-11	-20%	11%	?	50	/	10%
CCN(Cc1ccccc1)S(=O)(=O)c1ccccc1Br	/	/	/	-0.9%	79	/	-13%
O=C(COC(=O)c1ccccc1[N+](=O)[O-])c1ccc(C2CCCCC2)cc1	-10	-28%	10%	-0.2%	1	8.0	-29%
COc1ccccc1OCC(=O)Nc1ccc(CSc2ccccc2)cc1C	2	0%	-3%	-3.2%	37	-0.3	-12%
O=C(CCCc1ccccc1)NCCCN1CCOCC1	10	?	4%	-1.2%	-2	1.3	1%
Fc1cccc2sc(Nc3nc4cc5c(cc4s3)OCCO5)nc12	7	-19%	1%	288%	2	9.7	-9%
CC1CCCC(NC(=O)COC(=O)C2=COCCO2)C1C (stereo not given)	/	-1%	/	-0.7%	-4	/	/
CCOc1ccc(NCc2cc3cc(OC)ccc3[nH]c2=O)cc1	-6	-7%	-1%	-0.2%	9	4.6	-6%
CCOc1ccc(NC(=O)c2ccc(NC(=O)COC(=O)c3ccc(NC(=O)CC#N)cc3)cc2)cc1	-6	4%	/	0.5%	7	/	7%
Cc1cc2c(ccc3[nH]onc32)n1	/	15%	?	-2.3%	-3	4.7	9%
N#CCOC(=O)[C@H](Cc1c[nH]c2ccccc12)NS(=O)(=O)c1ccc(Cl)cc1	-7	13%	6%	1.8%	-10	-0.1	-26%
CC(=O)Nc1ccc(S(=O)(=O)NCCc2cc3ccc(C)c(C)c3[nH]c2=O)cc1	-8	6%	27%	-3.2%	-5	/	15%
COc1cc(NS(=O)(=O)c2ccc(N=Cc3c(C)[nH]n(-c4ccccc4)c3=O)cc2)nc(OC)n1	8	6%	4%	0.6%	-10	4.8	-5%
O=C(NCC1CCCO1)c1ccccc1NS(=O)(=O)c1ccc(Br)s1 (stereo not given)	/	25%[15.4 µM]	/	/	-9	/	4%
CCN(CC(=O)Nc1ccccc1C(F)(F)F)C(=O)c1cc(S(=O)(=O)N(C)C)ccc1N1CCCC1	-1	?	18%	-0.2%	-8	-1.8	1%
COc1cc(OC)cc(C(=O)Nc2ccc3c(c2)CCCN3C(=O)c2cccs2)c1	-46	29%	-6%	-1.1%&-2.9%	43&-2	/	?
Cc1cccc(NC(=O)CSc2nnc(-c3ccc(S(=O)(=O)N4CCOCC4)cc3)n2C)c1	12	?	2%	-2.7%	24	-6.5	-6%
CCOc1cc(CNCc2ccccc2)ccc1OCC(=O)NC1CCCCC1	5	-71%[inhibitor]	12%	-1.6%	8	/	12%
CC(=O)c1cc2c(cc1NC(=O)CSc1ccc(S(=O)(=O)N(C)C)cn1)OCO2	6	-10%	/	?	-3	/	-5%
O=C(NN=Cc1c(O)ccc2ccccc12)C1CC1	/	-39%[inhibitor]	/	-2.9%	-7	/	-6%
CCOc1ccc(C2=CC(=O)C[C@H](c3ccc(OC)cc3)C2)cc1	-17	12%	/	-6.5%	19	/	-22%
S=C(NCCc1ccccc1)Nc1ccc(N2CCCCC2)cc1	-10	-19%	5%	-1.3%	36	-0.6	0%
